# HPGD inh = blocks human HPGD enzyme activity. Potency, µM, without a hit: at the top dose activity change, negative = inhibition, hits mostly inhibitors. P15428. 150,000 tested, 4.3% active. purified HPGD, NADH fluorescence kinetic, PGE2 substrate; active = well fitted inhibition curve with a large enough effect (not every such curve was filed as active); inconclusive = small, poorly fitted or top-dose-only effect, or another doubt; inactive = no such curve, though single readings can be large or run the other way;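 note: top concentration of the series not given in the record; plate controls included wells without enzyme; inactives centre near -10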
# Target sequence (P15428 whole entry, looked up): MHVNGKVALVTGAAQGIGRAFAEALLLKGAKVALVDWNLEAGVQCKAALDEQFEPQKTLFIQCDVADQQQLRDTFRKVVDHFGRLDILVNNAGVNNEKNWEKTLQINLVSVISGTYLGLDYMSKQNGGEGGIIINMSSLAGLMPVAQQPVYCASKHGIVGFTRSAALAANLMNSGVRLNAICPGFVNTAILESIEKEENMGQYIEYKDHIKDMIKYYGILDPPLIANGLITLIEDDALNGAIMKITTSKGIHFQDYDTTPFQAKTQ
#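 20 nM HPGD preincubated 15 min at room temperature with compound in 50 mM Tris-HCl pH 8, 0.01% Tween 20. Started with 1 mM NAD+ and 30 uM prostaglandin E2; NADH fluorescence (360/450 nm) read 5 times over 30-s intervals, last minus first.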
# * = called active by the depositor; ? = inconclusive; & = joins results of further samples. % is set by controls: 0 for no effect and ±100 for the full control effect; potency is the fitted concentration of half-maximal effect. A portion of the library. The share of hits here may be higher or lower than overall.
SMILES,HPGD inh
CC(C)NC(=O)NC1C2CC3CC(C2)CC1C3 (centres undefined),-3%
CN(C)/C=N/c1c(C#N)cnn1-c1ccc(C(F)(F)F)cn1,-6%
C=CCn1c(=NC(=O)c2sc3ccccc3c2Cl)sc2cc(S(N)(=O)=O)ccc21,-21%
CC(=O)O[C@H]1C(=O)[C@@]2(C)C([C@H](OC(=O)c3ccccc3)[C@]3(O)C[C@H](OC(=O)[C@H](O)[C@@H](NC(=O)c4ccccc4)c4ccccc4)C(C)=C1C3(C)C)[C@]1(OC(C)=O)CO[C@@H]1C[C@@H]2O (some centres undefined),-23%
C[N+]1(CC(=O)OCCCc2ccccc2)CCCC1,0%
CC1=C(C(=O)OCc2ccccc2)C(c2ccc(N(C)C)cc2)NC(=O)N1 (centres undefined),-7%
Cc1ccc(C(=O)CCC(=O)Nc2cccc(C(F)(F)F)c2)cc1,0%
CCc1ccc(S(=O)(=O)NCCc2csc(-c3ccccc3)n2)s1,-15%
CCOC(=O)c1cc2c(c(CSc3nc4ccccc4c(=O)n3Cc3ccco3)c1)OCOC2,-18%
CN(Cc1ccccc1)C(=O)CSc1nnc(-c2ccco2)n1-c1ccccc1,-11%
O=C(CSc1nnc(COc2ccccc2Cl)o1)NC(=O)NC1CCCC1,-22%
CCOC(=O)c1cnn(CCOC(=O)c2ccc(OC)cc2)c1NC(=O)c1ccc(OC)cc1,-11%
COc1ccccc1C(=O)Nc1cccc(-c2cn3ccsc3n2)c1,-5%
COc1ccccc1C(=O)Nc1ccc2oc(-c3ccc(F)cc3)nc2c1,?
COc1ccccc1OCc1nnc(SCCN2CCOCC2)o1,?

# Reprinted at random: 2 records from the list
SMILES,HPGD inh
CC(=O)O[C@H]1C(=O)[C@@]2(C)C([C@H](OC(=O)c3ccccc3)[C@]3(O)C[C@H](OC(=O)[C@H](O)[C@@H](NC(=O)c4ccccc4)c4ccccc4)C(C)=C1C3(C)C)[C@]1(OC(C)=O)CO[C@@H]1C[C@@H]2O (some centres undefined),-23%
C[N+]1(CC(=O)OCCCc2ccccc2)CCCC1,0%

# (cont.)
SMILES,HPGD inh
O=C(OC(C(=O)NCc1cccs1)c1ccc(F)cc1)c1ccco1 (centres undefined),-18%
CC(C)Oc1cccc(C(=O)Nc2ccc(N3CCN(S(C)(=O)=O)CC3)cc2)c1,-10%
CCOc1ccccc1CNC(=O)c1c([N+](=O)[O-])c(C)nn1C,-3%
Nc1nonc1NC(=O)CSc1ncccc1C(=O)O,-6%
N#Cc1cc2sc3nc4ccccc4n3c2cc1C#N,-1%
COc1cc(C(C)=O)ccc1COc1ccc(C(=O)OC(C)C(=O)NC(N)=O)cc1OC (centres undefined),-1%
Cc1ccc2c(n1)sc1c(-c3ccc(Br)cc3)c(C#N)c(N)nc12,?
Cc1cc(N2CCOCC2)nc2ccc(NC(=O)C3CCC(C)CC3)cc12 (centres undefined),?
O=S(=O)(Nc1cccc(-c2cn3ccsc3n2)c1)c1ccc(F)cc1,-14%
Cc1ccc2cc(CCNC(=O)c3ccco3)c(=O)[nH]c2c1,?
Cc1nnc(SCC(=O)Nc2ccc3c(c2)OCCO3)s1,0%
CCCCCNCc1cccn1C,-2%
COC(=O)c1sccc1NC(=O)c1c(C)noc1C,?
O=C(NCc1ccccc1)C1CCCN(S(=O)(=O)c2cccs2)C1 (centres undefined),0%
COCCn1nnnc1C(c1cccs1)N1CCN(c2cc(C)ccc2C)CC1 (centres undefined),-6%
Cc1ccc(C)c(OCCCC(=O)Nc2nccs2)c1,-15%
CCOC(=O)N1CCN(C(=O)CS(=O)Cc2nc(-c3ccc(C)cc3)oc2C)CC1 (centres undefined),-6%
O=S(=O)(c1ccc(Oc2ccc(-c3nnco3)cc2)nc1)N1CCC(Cc2ccccc2)CC1,-10%
CC(C)CN(CC(C)C)S(=O)(=O)N1CCC(C(=O)NC2CCCCCCC2)CC1,0%
COc1ccccc1N1CCN(CC(O)COCCOc2ccc(Br)cc2)CC1 (centres undefined),-16%
COc1ccc(N=Cc2c(O)n(-c3cccc(C)n3)c(=O)c3ccccc23)cc1,-14%
COCCNC(=O)Cn1c(=O)n(CCCCCC(=O)Nc2ccccc2)c(=O)c2sccc21,?
CCCCOc1ccc(C(C)NC(=O)CCS(=O)(=O)Cc2ccccc2F)cc1 (centres undefined),-1%
COc1ccc(-c2cc(C(=O)NC(C(=O)O)C(C)C)c(C)o2)cc1OC (centres undefined),?
COc1cc2[nH]c(=O)n(CCCCCC(=O)N3CC=C(c4ccccc4)CC3)c(=O)c2cc1OC,?
Cc1ccc(-c2cc(C(=O)OCC(=O)Nc3cc(C)on3)c3ccccc3n2)c(C)c1,-6%
Cc1c(NC(=O)CN2C(=O)c3cccc4cccc2c34)c(=O)n(-c2ccccc2)n1C,-23%
O=C(NCc1cccnc1)c1cc(-c2cccs2)on1,-11%
O=C(O)Cn1c(SCc2ccccc2)nc2ccccc21,-5%
CN(C)c1ccc(N/C=C/C(=O)c2ccccc2)cc1,-14%
COC(=O)CSc1nnc(C)n1-c1ccc(C)cc1,6%
CCCCn1nc2cc(C(=O)NCc3cc(C(F)(F)F)cc(C(F)(F)F)c3)ccc2c1OCC,?
COc1ccc(CONS(=O)(=O)c2ccc(NC(C)=O)cc2)cc1Cl,-9%
CCN(CC)c1ccc(NC(=O)COC(=O)CCC(=O)c2ccc(F)cc2)cc1,-7%
O=C(NC1=NCCS1)C12CC3CC(C1)CC(C(=O)NC1=NCCS1)(C3)C2,3%
CN(C)S(=O)(=O)c1cccc(NC(=O)c2cc3ccccc3o2)c1,-10%
CCCS(=O)(=O)N1CCN(Cc2ccco2)CC1,-2%
O=C(O)c1ccccc1NS(=O)(=O)c1cccc2cccnc12,3%
CCCCOCCCNC(=O)c1ccc([N+](=O)[O-])c(C)c1,-1%
CCc1ccc(NC(=O)CC2C(=O)NCCN2C(=S)Nc2ccccc2)cc1 (centres undefined),-11%
Cc1ccc(-c2noc(CSc3nc(N)cc(N)n3)n2)cc1,-2%
CCN(CC)S(=O)(=O)c1ccc(NC(=O)CSc2cccc[n+]2[O-])cc1,-12%
Cc1cc(NC(=S)NC(=O)c2ccccc2)ccc1-c1cc2ccccc2oc1=O,-5%
CCOC(=O)c1ccc2[nH]c(C)c(CCC(C)=O)c(=O)c2c1,?
CCCN(CCC)C(=O)CC(c1ccccc1)c1cc(C)ccc1O (centres undefined),-11%
O=S(=O)(c1ccc2c(c1)OCCO2)N1CCC(n2nnc3cc(F)ccc32)CC1,-10%
Cc1ccc2c(c1)C=CC(C)(C)S2(=O)=O,-2%
COc1ccc(C2CC(c3ccccc3)=NN2c2ccc(/C=N/NC(=O)c3ccncc3)cc2)cc1 (centres undefined),-12%
CCCCNC(=O)CNC(=S)N(Cc1ccccc1)Cc1cccnc1,-1%
CCOc1ccccc1OCC(=O)NN1Cc2ccccc2C1=N,-2%
O=C(O)c1ccc(CN2C(=O)c3ccccc3S2(=O)=O)cc1,-3%
Cc1cc2ccccc2n1CCNC(=O)C(C)(C)C,-2%
Nc1nc(SCC(=O)Nc2ccccc2)[nH]c(=O)c1NC(=O)c1cccs1,-14%
COC(=O)Nc1sc2c(c1C(=O)N1CCOCC1)CCC(C)C2 (centres undefined),-15%
COc1cccc(-n2c(Cc3cc(=O)[nH]c(=O)[nH]3)nnc2SCC(=O)NC2CCCC2)c1,-8%
Cc1cccc(-n2cnc(C(=O)Nc3cccnc3)c2)n1,-9%
Cn1cc(S(=O)(=O)CC(=O)N2CCc3ccccc32)c2ccccc21,-3%
COc1cc(C2NC(=O)NC(C)=C2C(=O)OC(C)C)ccc1OC(=O)c1ccco1 (centres undefined),-3%
COc1nonc1NCn1nc(C)cc1C,-1%
O=C(c1nc2ccccc2s1)N1CCSCC1,8.9µM*

# Ordered by molar mass (lowest first): part of the list above.
SMILES,HPGD inh
COC(=O)CSc1nnc(C)n1-c1ccc(C)cc1,6%
CCOc1ccccc1OCC(=O)NN1Cc2ccccc2C1=N,-2%
Cc1ccc(C(=O)CCC(=O)Nc2cccc(C(F)(F)F)c2)cc1,0%
COc1ccc(CONS(=O)(=O)c2ccc(NC(C)=O)cc2)cc1Cl,-9%
Cc1cc(NC(=S)NC(=O)c2ccccc2)ccc1-c1cc2ccccc2oc1=O,-5%
COc1cc(C(C)=O)ccc1COc1ccc(C(=O)OC(C)C(=O)NC(N)=O)cc1OC (centres undefined),-1%

# (list continues)
SMILES,HPGD inh
O=C(N/N=C/c1cccc([N+](=O)[O-])c1)C1CC(=O)N(c2ccc(F)cc2)C1 (centres undefined),-8%
O=C(NC1=NCCS1)c1ccc(Br)s1,-7%
O=C(NC1CCN(C(=O)Nc2cccc(F)c2)CC1)C1CCCCC1,-4%
Cc1ccc(S(=O)(=O)N2CCN(C(=O)COc3ccc(-c4nnco4)cc3)CC2)cc1,2%
CC(=O)c1ccc(N2CCN(C(=O)c3ccc4nc[nH]c4c3)CC2)cc1,-17%
CCCCOc1ccc(C(=O)Nn2c(-c3cccs3)nc3ccccc3c2=O)cc1,?
COc1ccc2cc(C(=O)Nc3ccc(Cl)cc3)sc(=O)c2c1OC,-10%
CCN(CC)C(=O)CSC1c2ccccc2C(=O)N1c1ccccc1 (centres undefined),-13%
c1ccc2c(c1)CCCn1nnnc1-2,-4%
CC1CCN(C(=O)c2ccc(S(=O)(=O)Cc3ccccc3F)c([N+](=O)[O-])c2)CC1,-16%
CCCCSc1[nH]c(=O)c(C(=O)OCC)cc1C#N,?
c1ccc2[nH]c(SCc3cn4cccnc4n3)nc2c1,-20%
Cc1cc(NC(=O)CSc2nnc(CNc3cccc(C(F)(F)F)c3)n2Cc2ccco2)no1,2%
O=C1CN(/N=C/c2ccc([N+](=O)[O-])o2)C(=O)N1,2%&-18%&-7%
COc1cccc(C(=O)Oc2cc(N)n(S(=O)(=O)c3ccc(C)cc3)n2)c1OC,-10%

# 3 entries already listed, arranged by the value under HPGD inh, falling:
SMILES,HPGD inh
COc1ccc(C2CC(c3ccccc3)=NN2c2ccc(/C=N/NC(=O)c3ccncc3)cc2)cc1 (centres undefined),-12%
Nc1nc(SCC(=O)Nc2ccccc2)[nH]c(=O)c1NC(=O)c1cccs1,-14%
COc1ccccc1N1CCN(CC(O)COCCOc2ccc(Br)cc2)CC1 (centres undefined),-16%

# The list goes on:
SMILES,HPGD inh
COc1ccc(NC(=O)Cn2c(=O)n(-c3ccccc3)c(=O)c3oc4ccccc4c32)c(OC)c1,-14%
N#Cc1ccsc1NC(=O)CN1CCCCC1,-11%
Cc1nc([N+](=O)[O-])cn1-c1nc2ccccn2c1[N+](=O)[O-],-1%
CCN1C(=O)c2cccc3c(S(=O)(=O)Nc4ccc(OC)cc4OC)ccc1c23,-7%
Cc1cc(NC(=O)CSc2nc3ccsc3c(=O)n2Cc2ccccn2)n[nH]1,-14%
CCOC(=O)c1sc2ncn(C(CC)C(=O)OCC)c(=O)c2c1C (centres undefined),1%
CCCCNC(=S)N/N=C/c1ccc(C)s1,-14%
CCOc1nc(C)ccc1-c1noc(-c2ccccn2)n1,-14%
O=c1c2ccccc2nc(SCc2nc(-c3ccccc3)no2)n1-c1ccc(F)cc1,-12%
CCn1cc(C2Nc3ccccc3C(=O)N2O)c(C)n1 (centres undefined),-9%
O=C(C1CCN(S(=O)(=O)N2CCC3(CC2)OCCO3)CC1)N1CCCCC1,16µM*
COc1ccc2c(c1)C(=O)[C@@H](OC(=O)N[C@H]1CCCc3ccccc31)[C@H](c1ccc(OC)c(Br)c1)O2,-9%
O=C(Cn1nc(C(F)(F)F)c2c1CCC2)NCc1ccc(F)cc1,-16%
COc1cccc(/C=C2\SC(=S)N(CC3CCCO3)C2=O)c1 (centres undefined),-20%
CCc1ccc(S(=O)(=O)NCCc2cn3ccsc3n2)s1,-10%
Cc1ccnc(SCc2cc(=O)c(OC(=O)c3ccc(Br)o3)co2)n1,3%
CC(=O)Nc1nc(-c2ccccc2)c(-c2ccccc2)o1,-15%
COc1cccc(N2CCN(CC(=O)Nc3nc4c(s3)CC(C)CC4)CC2)c1 (centres undefined),-1%
CN(C)CCNC(=O)COc1ccc(Cl)cc1Cl,-5%
CCCCNC(=O)NNC(=O)c1ccco1,-3%
Cc1ccc(NC(=O)c2csnn2)c(C)c1,-3%
COc1ccccc1NC(=O)N(Cc1cccs1)Cc1cc2cc3c(cc2[nH]c1=O)OCO3,-14%
COc1ccc(N(CC(=O)O)N=O)cc1,-6%
CCOC(=O)N1CCN(c2nc3ccccc3nc2C(C#N)S(=O)(=O)c2ccc(C)cc2)CC1 (centres undefined),-3%
COc1ccc(/C=N/NC(=O)c2csc(-n3nc(C)cc3C(F)(F)F)n2)cc1,-1%
COC(=O)CNC(=O)C(C)NC(=O)OCc1ccccc1 (centres undefined),-1%
O=C(NCc1ccc2c(c1)OCO2)c1cccnc1,?
C=C(NC(=O)C(=C)NC(=O)c1csc(C2=NC3c4csc(n4)C4NC(=O)c5csc(n5)C(C(C)(O)C(C)O)NC(=O)C5CSC(=N5)C(=CC)NC(=O)C(C(C)O)NC(=O)c5csc(n5)C3(CC2)NC(=O)C(C)NC(=O)C(=C)NC(=O)C(C)NC(=O)C(C(C)CC)NC2C=Cc3c(C(C)O)cc(nc3C2O)C(=O)OC4C)n1)C(N)=O (centres undefined),-29%
CC1=NN(c2nc(C)cc(C)n2)C(=O)C1CCC(C)C (centres undefined),-6%
COc1cccc(C(=O)CN2CCN(S(=O)(=O)c3ccc(Br)cc3)CC2)c1,-7%
COc1ccc(-c2noc(CCC(=O)NCCN(C)Cc3ccccc3)n2)cc1,16µM*
O=C(NC1CCCC1)C1CCN(S(=O)(=O)c2cccc3cccnc23)CC1,-6%
Clc1cccc(OCCCN2CCCC2)c1Cl,7%
Cc1cc(C)cc(Oc2ccc(N)cc2)c1,-2%
CC(=O)Oc1cccc(N2C(=O)c3ccc(C(=O)O)cc3C2=O)c1,-8%

# Compound activity deposited in PubChem by National Center for Advancing Translational Sciences (NCATS).
